# Compound activity: PubChem BioAssay, several laboratories
# PrP 5UTR inh: inhibition of PrP 5' UTR reporter expression; AID 488862; inhibition, % (test concentration not listed); cell-based PrP 5' UTR mRNA reporter, plate reader; hit rate 0.35% among 340,000;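 active = every replicate at 50% or more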;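 also: 0 = median of the neutral control wells; tested in H4 reporter cells; numbers are from one replicate; inactives centre near -14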
# Sa RN4220 lethal: kills Staphylococcus aureus RN4220; inhibition, % (concentration not given with the values); S. aureus RN4220 growth, OD600, 16 h; hit rate 0.33% among 330,000;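 active = z-score of -3 or lower and OD600 up to 0.18 on both plates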;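 also: plate controls were untreated cells for no effect and reference antibiotic for full effect; stock transfer was 100 nL into about 80 µL; one replicate is shown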
# Sa ugtP lethal: kills S. aureus RN4220 lacking UgtP; S. aureus RN4220 ugtP deletion, OD600 growth, 16 h; some inactives read as strong as hits; growth inhibition, % (test concentration not listed); hit rate 0.54% among 330,000; AID 1259309;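 active = z-score under -3 and OD600 up to 0.15 on both plates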;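 also: plate controls were untreated wells for no effect and antibiotic for full effect; wells of about 80 µL received 100 nL stock; the first replicate is given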
# Mtb hypoxia rep: inhibitors of hypoxia-regulated fluorescent reporter in Mycobacterium tuberculosis. M. tuberculosis hypoxia-regulated fluorescent reporter, fluorescence. fluorescence inhibition, % (test concentration not listed). hit rate 0.1% among 300,000. AID 1159583;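 active = 35 to 45% if threefold the growth effect, above 45% if 1.5-fold the growth effect; inactive = the rest, general growth blockers included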;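 also: wells of about 50 µL received 100 nL stock; 0% = vehicle wells and 100% = reference inhibitor wells; whole bacteria with a GFP reporter of the hypoxia response; strong numbers were not always called active; many hits fall short of the cut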
# Bead autofluor: flagged as autofluorescent in microsphere protease counterscreen; compound autofluorescence counterscreen, microsphere flow cytometry; hits give high values; fluorescence intensity (test concentration not listed); hit rate 3.1% among 360,000; AID 624483;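 active = at least 3 SD above the mean of all compounds, about 16000 in these data; inconclusive = too few beads counted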;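 also: 100 nL of 1 mM stock went into each well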
# BJeLR viability: BJeLR cell viability loss; BJeLR (HRASV12) viability, CellTiter-Glo ATP luminescence, 48 h; reference of the scale not given here; inhibition, % (test concentration not listed); hit rate 0.17% among 300,000;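 active = replicate mean above 50%; inconclusive = above 50% but judged a plate artefact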;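 also: 50 nL library stock added to about 25 µL; numbers are from one replicate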
# Mtb hypoxia rep growth: also measured in Mtb hypoxia rep; calls as there; growth inhibition, %; measured here: M. tuberculosis growth (absorbance);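 0% = vehicle and 100% = reference antibiotic; read after six days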
# Numbers without * were called inactive; u = inconclusive; x = not tested or not shown. Not a hit list; about 4% have a hit in one of these screens.
SMILES,PrP 5UTR inh,Sa RN4220 lethal,Sa ugtP lethal,Mtb hypoxia rep,Mtb hypoxia rep growth,Bead autofluor,BJeLR viability
Cc1ccc(C(=O)NCc2ccc(Cl)c(Cl)c2)o1,1,-3.2,-1,x,x,4613,-6
Nc1ccccc1-n1cccc1,-49,1.9,12,x,x,x,-3
COc1cccc(/C=N/NC(=O)c2ccc(COc3ccc(Cl)cc3Cl)o2)c1,-41,x,x,x,x,4272,-2
Cc1ccc(S(=O)(=O)N2CCC(=O)N(CCOC(=O)Nc3ccc(C)c(C)c3)CC2)cc1,-11,4.4,5,8,11,4174,4
O=C(CCCN1C(=O)c2ccccc2C1=O)N1CCOCC1,-12,5.6,14,3,-5,4592,6
O=S(=O)(c1ccccc1)N1CCN(c2nc3ccccc3s2)CC1,-35,-7.0,1,-7,12,4804,5
OCC1(CCc2ccccc2)CCN(Cc2cnc(N3CCCC3)s2)CC1,-12,-6.5,6,12,2,4273,-15
N/C(=N\OC(=O)CCC(=O)O)c1ncc(C(F)(F)F)cc1Cl,-4,x,x,x,x,4296,6
Cc1ccccc1OC(=O)Cn1c(C(F)(F)F)nc2ccccc21,-6,2.5,6,x,x,2772,-9
Cc1c(C)c2ccc(OCC(=O)NCc3ccccn3)cc2oc1=O,-7,2.5,5,7,2,5274,-1
Cc1ccc(-n2nnnc2SCC(=O)NCC2(N3CCCCC3)CCCCC2)c(C)c1,-5,0.6,9,7,0,5556,x
CCCCCC1CCC(C(=O)N2CCOCC2)CC1 (stereo not given),-34,-0.5,8,x,x,4489,-11
CCCCNC(=O)Cn1cnc([N+](=O)[O-])n1,-15,-0.6,3,-1,2,2612,-8
COc1ccc(CCN(C)C(=O)COC(=O)/C=C/c2ccc(C)o2)cc1OC,-6,-1.6,-2,-4,-1,3976,x
O=C(NCc1ccccn1)c1ccc(N2CCCC2=O)cc1,-21,2.7,11,-2,-5,3262,-6
CCN1CCN(c2cc(C)c3cc(NC(=O)c4cc(OC)cc(OC)c4)ccc3n2)CC1,x,6.5,-3,-3,-2,3621,7
CCCNC(=O)NC(=O)CN1C(=O)NC(C)(c2ccc3ccccc3c2)C1=O (stereo not given),-7,-9.0,-10,11,2,5852,-7
Cc1ccc(CSc2nncn2-c2ccccn2)cc1,-16,-0.3,-1,x,x,4052,-5
CCN(CC(=O)Nc1c(F)cccc1F)C(=O)C1CC(=O)N(CCc2ccccc2)C1 (stereo not given),-25,4.8,6,13,3,u,8
COc1cc(CNC(C)(C)C)cc(Br)c1OCc1cccs1,-8,6.6,6,7,0,2626,-5
Cc1nc(C(C)N(C)Cc2nc(Cc3ccccc3F)no2)c(C)s1 (stereo not given),1,3.2,0,-4,-3,5758,0
Cc1ccnc(-n2c(C)cc(C=O)c2C)c1,-2,2.8,2,13,6,3345,2
O=C(CC1C(=O)N(C2CCCCC2)CC1Cc1ccccc1)Nc1ccccc1 (stereo not given),x,2.8,4,-1,-6,x,x
C=CCc1c(O)nc(SCC(=O)c2ccccc2)[nH]c1=O,-10,5.2,2,x,x,2745,1
CC1CCN(C(=O)CN(C2CCCCC2)S(C)(=O)=O)CC1,-7,2.9,-3,x,x,4448,3
O=C(O)/C=C/c1cn(-c2ccccc2)nc1-c1ccc2c(c1)OCCO2,-6,7.7,9,6,4,3427,3
O=P(OC1CCCCC1)(OC1CCCCC1)C(Nc1ccccc1)c1cccnc1 (stereo not given),-15,0.3,5,10,-9,3667,1
CCOC(=O)C(=CNc1cscc1S(=O)(=O)C(C)C)C(=O)OCC,-20,3.2,-5,4,13,5943,1
N#CCC(=O)NN=Cc1cc(Br)ccc1OCc1cccc2ccccc12,x,29,62,-5,1,x,x
CSc1nc2c(c(=O)[nH]1)C(c1cccs1)C1=C(CCCC1=O)N2 (stereo not given),-12,-4.7,-11,-1,-5,3675,-6
Cc1cc(C)n2nc(SCC(=O)N(C)c3c(N)n(Cc4ccccc4)c(=O)[nH]c3=O)nc2n1,-28,5.4,2,13,8,4013,3
CN1OC2C(=O)N(c3ccccc3)C(=O)C2C1c1ccc(F)cc1 (stereo not given),-18,-0.5,-8,-5,0,7874,4
CCOC(=O)C(CCC(C)=O)C(=O)c1ccccc1 (stereo not given),-28,7.8,0,1,-2,4125,-3
CCOC(=O)c1ccc(C(=O)OCC)nc1,-6,4.4,5,-7,-1,3082,-4
Cc1cccc(Nc2nc(NCc3ccco3)c3ccccc3n2)c1,-41,-12,-57,-22,-4,2225,14
Cc1ccc(N2CC(C(=O)O)CC2=O)cc1 (stereo not given),-12,3.0,5,9,3,4274,3
Cc1nc2c(nnn2Cc2ccccc2)c(=O)[nH]1,0,2.3,3,6,15,4612,-1
CCCNc1ncnc2nc[nH]c12,-24,0.4,4,8,6,5891,5
COc1ccc(S(=O)(=O)N2CCN(Cc3cccs3)CC2)cc1OC,-8,4.8,5,13,13,3286,x
COc1cc(/C=C2\CCCc3c2nc2ccccc2c3C(=O)O)cc(OC)c1O,-15,11,6,8,7,4530,-13
COc1ccc(-c2cc(N)n(S(=O)(=O)c3ccc(C)cc3)n2)c(OC)c1,-21,0.5,9,-5,3,6063,-4
O=C(O)/C=C/c1ccc(S(=O)(=O)N2CCCCCC2)cc1,-13,2.3,2,1,0,2646,3
Cc1ccc(NC(=O)CNCc2ccccn2)cc1S(=O)(=O)N(C)C,-12,8.3,4,11,18,4462,-3
CC(C)C(NC(=O)OCc1ccccc1)C(=O)NC(C=O)Cc1ccccc1 (stereo not given),x,3.1,-2,0,3,x,x
O=C(N/N=C/c1ccncc1)c1cc(Br)ccc1OCc1ccccc1,-12,x,x,x,x,2242,0
CCCCN(C)C(=O)c1nc2ccccn2c1CN1CCC[C@H]1CO,-37,3.1,6,6,1,3547,-7
COC(=O)c1cccc(NC(=O)c2cccs2)c1C,-26,-1.8,5,7,3,3807,-3
COc1ccc(C(=O)C2CCCN(Cc3c(O)cccc3OC)C2)cc1OC (stereo not given),-34,4.0,5,5,5,4574,10
CC(C)(C)[C@H]1C=C(C(=O)Nc2ccccc2)O[C@@H](OCc2ccc(CO)cc2)C1,-13,x,x,x,x,4074,-5
CN1Cc2c(N3CCOCC3)nc(SCc3ccccc3)c(C#N)c2CC1(C)C,1,0.1,8,4,-5,15743,-8
O=C(Cn1c(N2CCN(C/C=C/c3ccccc3)CC2)nc2ccccc21)c1ccccc1,x,-6.5,9,2,5,x,4
Cc1ccc2c(C(=O)CN3CCCCC3CCO)c(C)[nH]c2c1 (stereo not given),-25,-2.1,-1,x,x,6470,0
CO/N=C/NC(=O)N1OC[C@@H]2COc3ccc4ccccc4c3[C@@H]21,-14,x,x,x,x,2450,-3
COc1ccc2cc(CCNC(=O)c3c(-c4ccccc4Cl)noc3C)c(=O)[nH]c2c1,-24,1.6,12,9,3,4561,-4
CC(NCc1cccn1C)c1ccccc1 (stereo not given),-10,2.1,1,4,3,10259,7
O=C1CN(C(=O)COc2ccc(Cl)c(Cl)c2)c2ccccc2N1,-19,0.8,-1,-5,6,u,x
CC(C)c1ccc(NC2CCCN(C(=O)c3cscn3)C2)cc1 (stereo not given),-14,-0.9,5,7,-8,5704,-11
O=C(NCCc1ccc2c(c1)OCCO2)c1cc(F)cc(F)c1,-18,-1.0,-7,4,11,9985,-4
CC(=O)Nc1nnc(/C=C/c2cccc([N+](=O)[O-])c2)s1,-42,5.8,5,10,1,4252,2
Cc1cc(=O)[nH]c(SCC(=O)Nc2ccccc2C)n1,-22,2.5,2,5,1,4134,4
# Continuation.
SMILES,PrP 5UTR inh,Sa RN4220 lethal,Sa ugtP lethal,Mtb hypoxia rep,Mtb hypoxia rep growth,Bead autofluor,BJeLR viability
CCN1C(=O)c2cccc3c(Cl)ccc1c23,13,1.3,-2,-4,0,u,-5
CCOC(=O)CN1CC23C=CC(O2)C(C(=O)Nc2ccc(OC)cc2OC)C3C1=O (stereo not given),-23,6.9,11,x,x,5803,1
Cc1ccc(S(=O)(=O)N2CCOCC2)cc1C(=O)Nc1cc(Cl)ccc1N1CCOCC1,-13,1.1,1,-1,2,5181,x
COc1ccc(S(=O)(=O)NN=Cc2ccc3c(c2)OCO3)c(OC)c1,x,0.1,3,6,16,x,x
O=C(CN1C(=O)c2cccc3cccc(c23)C1=O)N1CCN(c2ccccn2)CC1,-7,6.1,5,-4,6,2010,3
CCOc1cccc(OCCOCCN(C)Cc2ccccc2)c1,-6,3.9,12,17,8,u,2
O=C(CSc1nncs1)NCCNC(=O)CSc1nncs1,-15,-0.6,0,3,5,4418,-2
CCCN1CCN(S(=O)(=O)c2cn(C)nc2C)CC1,-14,1.6,1,5,2,6070,6
COc1ccc(-n2nc(C)cc2Nc2ccccc2C(=O)O)cc1,-1,2.5,-5,3,-3,4500,-2
O=C1CC(N2CCN(C(c3ccccc3)c3ccccc3)CC2)C(=O)N1 (stereo not given),-10,1.1,6,15,14,3114,-4
N#Cc1ccc(C(c2nnnn2CCc2ccccc2)N2CCCCCC2)cc1 (stereo not given),4,16,-10,3,-3,9818,2
COc1cc(OC)c2c(-c3cccc(-c4cccc(N)c4)c3)cc(=O)oc2c1,-26,-0.9,-7,2,6,3264,x
O=C(COC(=O)c1ccc([N+](=O)[O-])o1)NC1CCS(=O)(=O)C1 (stereo not given),-12,8.0,3,9,5,2021,-1
Cn1ccnc1SCC(=O)Nc1ccc2c(c1)COC2=O,-10,-0.5,-6,x,x,3627,-8
CC[C@H](C)[C@H](NC(=O)OCc1ccccc1)C(=O)OCC(=O)Nc1ccc(N2CCOCC2)cc1,-7,-1.3,10,10,8,5009,-9
O=C(NCCC1=CCCCC1)c1cc(S(=O)(=O)N2CCOCC2)ccc1Cl,-10,3.9,6,7,-3,4251,6
COC(=O)CSc1nnc(NC(=O)c2ccc3c(c2)OCO3)s1,21,3.0,4,8,0,4803,1
O=C1Nc2c(Br)cccc2C1=O,6,2.7,0,-1,1,3710,x
COc1ccc(C)cc1NC(=O)CN(C)C1CCCCC1,-24,2.5,10,5,6,3885,-10
CCc1ccc2[nH]c(O)c(N=Nc3nc(-c4ccccc4)cs3)c2c1,-11,-9.0,-2,x,x,2117,1

# Six entries from above, arranged by number of heavy atoms, highest first.
SMILES,PrP 5UTR inh,Sa RN4220 lethal,Sa ugtP lethal,Mtb hypoxia rep,Mtb hypoxia rep growth,Bead autofluor,BJeLR viability
O=C(CN1C(=O)c2cccc3cccc(c23)C1=O)N1CCN(c2ccccn2)CC1,-7,6.1,5,-4,6,2010,3
CCc1ccc2[nH]c(O)c(N=Nc3nc(-c4ccccc4)cs3)c2c1,-11,-9.0,-2,x,x,2117,1
Cn1ccnc1SCC(=O)Nc1ccc2c(c1)COC2=O,-10,-0.5,-6,x,x,3627,-8
CCCN1CCN(S(=O)(=O)c2cn(C)nc2C)CC1,-14,1.6,1,5,2,6070,6
CCN1C(=O)c2cccc3c(Cl)ccc1c23,13,1.3,-2,-4,0,u,-5
O=C1Nc2c(Br)cccc2C1=O,6,2.7,0,-1,1,3710,x

# Further structures follow.
SMILES,PrP 5UTR inh,Sa RN4220 lethal,Sa ugtP lethal,Mtb hypoxia rep,Mtb hypoxia rep growth,Bead autofluor,BJeLR viability
COc1ccccc1NC(=S)N(Cc1ccco1)Cc1cc2cc(C)ccc2[nH]c1=O,12,12,15,-5,-3,2628,2
Clc1ccc(-c2noc(CN(Cc3ccccn3)CC3CCCO3)n2)cc1 (stereo not given),-14,-1.7,6,-4,12,4487,8
O=C(Nc1nc2c(s1)CCCC2)C1CCCN1C(=O)c1cccs1 (stereo not given),3,-0.2,6,1,-4,16410*,-9
O=C(NCC(c1cccs1)N1CCOCC1)c1ccc(OCc2ccccc2)cc1 (stereo not given),13,4.1,13,2,5,x,x
O=C(Oc1cccc(OC(=O)c2ccco2)c1)c1ccco1,-12,13,-1,12,2,3661,-2
O=C1NCN(c2ccccc2)C12CCNCC2,4,2.6,7,-12,-8,10834,-10
Cc1ccc(N(CC(=O)NC2CCCCCC2)S(=O)(=O)c2c(C)nn(C)c2C)cc1,0,5.2,14,5,-2,15682,4
CC(C)(C)n1ncc2c(=O)n(Cc3ccccc3Br)cnc21,-16,7.2,1,1,-5,2999,x
